ugtP null kill = growth inhibition of ugtP-null S. aureus, primary screen, RN4220 ugtP deletion, OD600. 16 h; some inactives read as strong as hits. AID 1259309, 2017. growth inhibition, % (no concentration beside the values). 330,000 compounds, 0.54% hits;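 active means z-score under -3 and OD600 up to 0.15 on both plates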;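 further: plate controls were untreated wells for no effect and antibiotic for full effect; wells of about 80 µL received 100 nL stock; the first replicate is given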
Bead autofluor = flagged as autofluorescent in microsphere protease counterscreen; AID 624483; compound autofluorescence counterscreen, microsphere flow cytometry; active compounds read high; 360,000 compounds, 3.1% hits; fluorescence intensity (concentration not given with the values);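 active means at least 3 SD above the mean of all compounds, about 16000 in these data; inconclusive means too few beads counted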;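 further: 100 nL of 1 mM stock went into each well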
Sa RN4220 lethal = growth inhibition of S. aureus RN4220, primary screen, OD600; 16 h; inhibition, % (concentration not given with the values); 330,000 compounds, 0.33% hits; AID 1259311, 2017;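 active means z-score of -3 or lower and OD600 up to 0.18 on both plates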;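 further: plate controls were untreated cells for no effect and reference antibiotic for full effect; stock transfer was 100 nL into about 80 µL; one replicate is shown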
PrP 5UTR inh = inhibition of PrP 5' UTR reporter expression; inhibition, % (test concentration not listed); 340,000 compounds, 0.35% hits; cell-based PrP 5' UTR mRNA reporter, plate reader;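 active means every replicate at 50% or more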;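 further: 0 = median of the neutral control wells; tested in H4 reporter cells; numbers are from one replicate; inactives centre near -14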
Mtb hypoxia inh = PubChem AID 1159583. fluorescence inhibition, % (no concentration beside the values). 300,000 compounds, 0.1% hits. M. tuberculosis hypoxia-regulated fluorescent reporter, fluorescence;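 active means 35 to 45% if threefold the growth effect, above 45% if 1.5-fold the growth effect; inactive means the rest, general growth blockers included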;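 further: wells of about 50 µL received 100 nL stock; 0% = vehicle wells and 100% = reference inhibitor wells; whole bacteria with a GFP reporter of the hypoxia response; strong numbers were not always called active; many hits fall short of the cut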
BJeLR viability = MLPCN primary cell-based screen for lethality selective to Ras in HRASV12 cells; inhibition, % (concentration not given with the values); 300,000 compounds, 0.17% hits; BJeLR (HRASV12) viability, CellTiter-Glo ATP luminescence, 48 h; reference of the scale not given here;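 active means replicate mean above 50%; inconclusive means above 50% but judged a plate artefact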;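 further: 50 nL library stock added to about 25 µL; numbers are from one replicate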
Mtb hypoxia inh growth = second read-out of Mtb hypoxia inh, no call of its own (marks repeat the call); growth inhibition, %; measured here: M. tuberculosis growth (absorbance);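 0% = vehicle and 100% = reference antibiotic; read after six days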
Active calls of the source: *.

`O=C(Nc1nc2nc(-c3ccccc3)cc(-c3ccccc3)n2n1)c1ccco1` gave ugtP null kill 0, Bead autofluor 2360, Sa RN4220 lethal 4.3, PrP 5UTR inh -16 and BJeLR viability 0.
CC(=NNc1ccc(Cl)cc1)c1ccncc1 was read as ugtP null kill 16, Sa RN4220 lethal -11, Mtb hypoxia inh 14 and Mtb hypoxia inh growth 5.
CCn1c(=O)cc(SCC(=O)Nc2ccc(OC)c(OC)c2)c2ccccc21 was read as ugtP null kill -15, Bead autofluor 9975, Sa RN4220 lethal -0.4, PrP 5UTR inh -10, Mtb hypoxia inh 1, BJeLR viability -3 and Mtb hypoxia inh growth 2.
`Cc1ccc(/C=N/NC(=O)c2ccccc2OCc2cccc(Br)c2)o1` gave Bead autofluor 4641, PrP 5UTR inh -37 and BJeLR viability 5.
For CCN1C(=NCCc2cccnc2)NC(c2ccccc2)C(C(=O)OC)C1C (centres undefined) the results were ugtP null kill -8, Sa RN4220 lethal 1.4, Mtb hypoxia inh 7 and Mtb hypoxia inh growth 1.
`COc1cccc(NC(=O)CSc2nnc(Cn3c(=O)sc4ccccc43)n2C)c1` gave ugtP null kill -1, Bead autofluor 6111, Sa RN4220 lethal -1.2 and PrP 5UTR inh -22.
`CC(C)CNC(=S)N1CCN(c2nc(-c3ccc(Cl)cc3)cs2)CC1` gave Bead autofluor 4001, PrP 5UTR inh -22 and BJeLR viability 0.
`Cc1cc(C)c2sc(NNC(=O)C3COc4ccccc4O3)nc2c1` (centres undefined) gave ugtP null kill 10, Bead autofluor 5415, Sa RN4220 lethal 0.2, PrP 5UTR inh -18, Mtb hypoxia inh 8 and Mtb hypoxia inh growth 3.
For COc1ccc(OC)c(NC(=O)c2ccc(NC(C)=O)cc2)c1 the results were ugtP null kill -3, Bead autofluor inconclusive, Sa RN4220 lethal 5.8, PrP 5UTR inh -11, Mtb hypoxia inh 14, BJeLR viability 1 and Mtb hypoxia inh growth 12.
CN(C(=O)CSc1nc(N)nn1-c1ccccc1)c1ccccc1 was read as ugtP null kill -2, Bead autofluor 4988, Sa RN4220 lethal 0.2, PrP 5UTR inh -13, Mtb hypoxia inh 0, BJeLR viability -5 and Mtb hypoxia inh growth 7.
CCOC(=O)C(=O)Nc1ccccc1C(=O)NCc1ccccc1 was read as ugtP null kill 1, Bead autofluor 2269, Sa RN4220 lethal 4.6, PrP 5UTR inh -11, Mtb hypoxia inh 16, BJeLR viability -13 and Mtb hypoxia inh growth 4.
`COc1cc(/C=N/NC(=O)c2cccc(NC(=O)c3ccccc3Cl)c2)ccc1O` gave Bead autofluor 2232, PrP 5UTR inh -16 and BJeLR viability 3.
`NC(=O)c1ccc(NC(=O)COC(=O)CCCc2c[nH]c3ccccc23)cc1` gave ugtP null kill 0, Bead autofluor 3449, Sa RN4220 lethal 4.1, PrP 5UTR inh -9, Mtb hypoxia inh 14, BJeLR viability -11 and Mtb hypoxia inh growth 0.
`O=C(CCC(=O)OCC(=O)c1ccc(F)cc1)NC1CCCCC1` gave ugtP null kill 2, Sa RN4220 lethal -0.4, PrP 5UTR inh -6, Mtb hypoxia inh 11, BJeLR viability 5 and Mtb hypoxia inh growth 2.
`N#Cc1c(N(CCO)CCO)nc(N)c2c(N)nc3c(c12)CC(=O)N3Cc1cccs1` gave ugtP null kill 11, Bead autofluor 4306, Sa RN4220 lethal 1.8, PrP 5UTR inh -25, Mtb hypoxia inh 1, BJeLR viability -1 and Mtb hypoxia inh growth 1.
Screening O=C(CCSCCc1ccccn1)Nc1ccc(Br)cn1 returned ugtP null kill 22, Bead autofluor 23488*, Sa RN4220 lethal 7.2, PrP 5UTR inh -10, Mtb hypoxia inh 12, BJeLR viability -9 and Mtb hypoxia inh growth -5.
`O=S(=O)(c1ccccc1)c1nc(Nc2cccc(O)c2)sc1Cl` gave ugtP null kill -13, Bead autofluor 2522, Sa RN4220 lethal 6.8, PrP 5UTR inh -18, Mtb hypoxia inh -1, BJeLR viability 4 and Mtb hypoxia inh growth -1.
For Nc1nnn(CC(=O)NN=Cc2ccccc2Cl)n1 the results were ugtP null kill 0, Sa RN4220 lethal 21, Mtb hypoxia inh 4 and Mtb hypoxia inh growth 1.
Screening O=C(CSc1nnc(-c2ccccc2)o1)Oc1ccc(Br)cc1 returned ugtP null kill 6, Bead autofluor 7842, Sa RN4220 lethal 6.5, PrP 5UTR inh -33, Mtb hypoxia inh 10, BJeLR viability 8 and Mtb hypoxia inh growth 6.
Screening CNC(=O)Nc1ccc(C(=O)NN=CC23CC[C@@H](O)CC2(O)CC[C@@H]2[C@@H]3CCC3(C)C(C4=CC(=O)OC4)CCC23O)cc1 (some centres undefined) returned ugtP null kill -11, Sa RN4220 lethal -2.6, Mtb hypoxia inh -7 and Mtb hypoxia inh growth 10.
Screening CCOc1ccc(-c2noc(CCCC(N)=O)n2)cc1OC returned ugtP null kill 4, Bead autofluor 22255*, Sa RN4220 lethal 0.3, PrP 5UTR inh -11, Mtb hypoxia inh 1, BJeLR viability -2 and Mtb hypoxia inh growth 8.
For CCCNC(=O)c1ccc2c(=O)n(Cc3ccco3)c(=S)[nH]c2c1 the results were ugtP null kill 1, Bead autofluor 4938, Sa RN4220 lethal 32, PrP 5UTR inh -15, Mtb hypoxia inh -3, BJeLR viability -1 and Mtb hypoxia inh growth 0.
`CCOC(=O)[C@@H]1[C@H]2COc3cc(OC)ccc3[C@H]2N2C(=O)N(c3ccccc3)C(=O)[C@]12C` gave ugtP null kill -6, Bead autofluor 3601, Sa RN4220 lethal -15, PrP 5UTR inh -8, Mtb hypoxia inh 11 and Mtb hypoxia inh growth 3.
`Cn1c(=O)cc(OCC(=O)NCc2cccnc2)c2ccccc21` gave ugtP null kill -10, Bead autofluor 5874, Sa RN4220 lethal -5.4, PrP 5UTR inh -33, Mtb hypoxia inh -19, BJeLR viability -1 and Mtb hypoxia inh growth -4.
`CC(=O)C[C@H]1c2cc(C(F)(F)F)ccc2S(=O)(=O)N1C1CCCCC1` gave Bead autofluor 3949, PrP 5UTR inh 0 and BJeLR viability 9.
For O=c1c2ccc(Cl)cc2nc(-c2cccc(C(F)(F)F)c2)n1O the results were ugtP null kill 100*, Bead autofluor 2667, Sa RN4220 lethal 96*, PrP 5UTR inh 6 and BJeLR viability 26.
Screening CC(/C=C/c1ccco1)=NNC(=O)c1ccccc1Cl returned ugtP null kill -4, Sa RN4220 lethal 3.1, Mtb hypoxia inh 2 and Mtb hypoxia inh growth 6.
`CCOC(=O)c1ccc(NC(=O)CSc2nc(N)c(NC(=O)c3ccc(Br)o3)c(=O)[nH]2)cc1` gave ugtP null kill -2, Bead autofluor 6656, Sa RN4220 lethal 3.5, PrP 5UTR inh -8, Mtb hypoxia inh 6, BJeLR viability 0 and Mtb hypoxia inh growth 6.
For Cc1ccc(S(=O)(=O)N(C)C)cc1NC(=O)COC(=O)CNC(=O)c1cccs1 the results were ugtP null kill 6, Sa RN4220 lethal 4.6, PrP 5UTR inh -2, Mtb hypoxia inh 3, BJeLR viability 1 and Mtb hypoxia inh growth -3.
Screening CCS(=O)(=O)N1CCC(NC(=O)C(Cc2cccc(OC)c2OC)NC(C)=O)CC1 (centres undefined) returned ugtP null kill 8, Bead autofluor 3583, Sa RN4220 lethal -2.7, PrP 5UTR inh -7, Mtb hypoxia inh 3, BJeLR viability -5 and Mtb hypoxia inh growth 14.
`O=c1ccc(/C=C/c2ccccc2)nn1Cc1ccc(Cl)cc1Cl` gave ugtP null kill -5, Bead autofluor 2080, Sa RN4220 lethal -7.9, PrP 5UTR inh 2 and BJeLR viability -4.
O=[N+]([O-])c1ccccc1S(=O)(=O)c1ccccc1 was read as ugtP null kill 4, Bead autofluor 4030, Sa RN4220 lethal 6.3, PrP 5UTR inh -10, Mtb hypoxia inh -1, BJeLR viability -2 and Mtb hypoxia inh growth -1.
`Nc1nc(SCC(=O)Nc2ccc(Cl)cc2)[nH]c(=O)c1-c1ccccc1` gave ugtP null kill -12, Bead autofluor 4025, Sa RN4220 lethal 5.9, PrP 5UTR inh -17, Mtb hypoxia inh 1, BJeLR viability 6 and Mtb hypoxia inh growth 0.
`CCOCCCNC(=O)c1ccc2c(c1)OCO2` gave ugtP null kill 5, Bead autofluor 10504, Sa RN4220 lethal 2.2, PrP 5UTR inh -37, Mtb hypoxia inh 7, BJeLR viability -1 and Mtb hypoxia inh growth 8.
Cc1cc(NC(=O)c2c(Br)cnn2C)no1 was read as ugtP null kill 4, Bead autofluor 5177, Sa RN4220 lethal 2.9, PrP 5UTR inh -10, Mtb hypoxia inh 6, BJeLR viability 1 and Mtb hypoxia inh growth 5.
For Nc1c(N(Cc2ccccc2)C(=O)COc2ccc([N+](=O)[O-])cc2)c(=O)[nH]c(=O)n1Cc1ccccc1 the results were ugtP null kill 7, Bead autofluor 3472, Sa RN4220 lethal 3.7, PrP 5UTR inh -28, Mtb hypoxia inh 13 and Mtb hypoxia inh growth 9.
`COc1cccc(C(O)c2nc3ccccc3n2C(C)C)c1` (centres undefined) gave ugtP null kill -4, Bead autofluor 6839, Sa RN4220 lethal -1.3, PrP 5UTR inh -30, Mtb hypoxia inh 1, BJeLR viability 6 and Mtb hypoxia inh growth 1.
`CC1(C)C2([N+](=O)[O-])CN3CC1([N+](=O)[O-])CN(C2)C3C(O)C(O)C(O)CO` (centres undefined) gave ugtP null kill -4, Bead autofluor 4765, Sa RN4220 lethal -0.3, PrP 5UTR inh -3, Mtb hypoxia inh 0, BJeLR viability 3 and Mtb hypoxia inh growth -4.
`O=C(NNC1=Nc2ccccc2SC1)c1ccc(F)cc1` gave ugtP null kill 3, Bead autofluor 5567, Sa RN4220 lethal 5.1, PrP 5UTR inh -8, Mtb hypoxia inh 21, BJeLR viability -4 and Mtb hypoxia inh growth 10.
Screening CCOC(=O)c1c(CN2CCOCC2)n(-c2ccccc2)c2ccc(O)cc12 returned ugtP null kill -7, Bead autofluor 16508*, Sa RN4220 lethal 1.1, PrP 5UTR inh -21, Mtb hypoxia inh 10, BJeLR viability -10 and Mtb hypoxia inh growth 5.
Cc1nc2ccccc2c(=O)n1N=Cc1ccccn1 was read as ugtP null kill 4, Sa RN4220 lethal 4.3, Mtb hypoxia inh -4 and Mtb hypoxia inh growth 1.
`O=S(=O)(NCCc1csc(-c2ccccc2)n1)c1ccc2c(c1)OCCO2` gave ugtP null kill 9, Bead autofluor 3110, Sa RN4220 lethal 4.3, PrP 5UTR inh -15, Mtb hypoxia inh 8, BJeLR viability -10 and Mtb hypoxia inh growth 9.
CC(OC(=O)c1cc2sccc2n1C)C(=O)NCC1CCCO1 (centres undefined) was read as ugtP null kill 3, Bead autofluor 8026, Sa RN4220 lethal 4.5, PrP 5UTR inh 1, Mtb hypoxia inh 8, BJeLR viability -2 and Mtb hypoxia inh growth -2.
Cn1nccc1C(=O)NN=Cc1cccnc1 was read as ugtP null kill 3, Sa RN4220 lethal -2.4, Mtb hypoxia inh 3 and Mtb hypoxia inh growth 0.
For COCc1c(C(=O)N/N=C(/C)c2ccccc2)nnn1-c1nonc1N the results were Bead autofluor 3157, PrP 5UTR inh -7 and BJeLR viability 4.
Screening COc1ccc(C(=O)NN=Cc2ccc(OC(=O)c3cccs3)cc2)cc1 returned ugtP null kill -7, Sa RN4220 lethal 3.0, Mtb hypoxia inh 12 and Mtb hypoxia inh growth 15.
`CCNS(=O)(=O)c1ccc(OCCNS(C)(=O)=O)cc1` gave ugtP null kill 2, Bead autofluor 7924, Sa RN4220 lethal 2.0, PrP 5UTR inh -12, Mtb hypoxia inh 4, BJeLR viability 0 and Mtb hypoxia inh growth 2.
Screening CCCc1cc(=O)[nH]c(Nc2cc(OC)ccc2OC)n1 returned ugtP null kill -9, Bead autofluor 2150, Sa RN4220 lethal -4.2, PrP 5UTR inh -10 and BJeLR viability 0.

Random excerpt: two records from the list
Screening CCOC(=O)c1c(CN2CCOCC2)n(-c2ccccc2)c2ccc(O)cc12 returned ugtP null kill -7, Bead autofluor 16508*, Sa RN4220 lethal 1.1, PrP 5UTR inh -21, Mtb hypoxia inh 10, BJeLR viability -10 and Mtb hypoxia inh growth 5.
O=[N+]([O-])c1ccccc1S(=O)(=O)c1ccccc1 was read as ugtP null kill 4, Bead autofluor 4030, Sa RN4220 lethal 6.3, PrP 5UTR inh -10, Mtb hypoxia inh -1, BJeLR viability -2 and Mtb hypoxia inh growth -1.

Bioassay records: PubChem BioAssay, several laboratories
